Source: PubChem
Lassa entry inh: blocks Lassa virus binding to or entry into cells; Potency, µM (highest dose often 37.9 µM), for the others: top-dose activity change, negative = inhibition, hits mostly inhibitors; 300,000 tested, 1.2% active; Lassa virus pseudotype entry inhibition, cell reporter; control for the full effect not named in the record; active means well fitted inhibition curve with a large enough effect; inconclusive means small, poorly fitted or top-dose-only effect, or effect the other way; inactive means flat fitted curve, though single readings scatter; tested in HEK293 cells; note: % is set by controls: 0 for no effect and ±100 for the full control effect; nearly all actives have a fitted effect of over 50% in size; luciferase read-out
StopGo reporter: lowers the luciferase signal of an FMDV 2A StopGo reporter | Potency, µM (top dose mostly 57.9 µM), without a hit: at the highest dose signal change, negative = less light | 410,000 tested, 1.2% active | human cells with a luciferase reporter of 2A StopGo recoding; control for the full effect not named in the record; active = well fitted falling curve with a large enough effect; inconclusive = small, poorly fitted or top-dose-only effect; inactive = no such curve, though single readings can be large or run the other way; tested in HEK293T cells; note: % is set by controls: 0 for no effect and ±100 for the full control effect; nearly all actives have a fitted effect of over 45% in size; luciferase light after 4 h
NS1 inh: inhibitors of influenza NS1 protein function; Potency, µM (series often up to 46.1 µM), inactives show at the top dose activity, positive = more growth; S. cerevisiae slowed by influenza A NS1, growth recovery by OD600; 270,000 tested, 0.4% active; AID 2326; note: actives are rising curves; nearly all actives have a fitted effect of over 50% in size
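Growth recovery, yeast-based: influenza A NS1 expressed in S. cerevisiae causes slow growth, and suppressors are detected by OD600. The parent strain without NS1 is used as positive control.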
Cruzain Triton: inhibitors of Trypanosoma cruzi cruzain with detergent; 200,000 tested, 0.43% active; purified cruzain, Z-FR-AMC fluorescence, 0.01% Triton; Potency, µM, for the others: max response, negative = inhibition, actives largely listed as inhibitors; P25779; active = well fitted curve in the direction sought with a large enough effect; inconclusive = small, poorly fitted or top-dose-only effect, or another doubt; inactive = no such curve, though single readings can be large; an effect the other way counts as inactive or inconclusive;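 note: plate controls were neutral wells for no effect and buffer without enzyme for full effect; nearly all actives have a fitted effect of over 40% in size; top concentration of the series not given in the record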
Target sequence (P25779 123-467 limits assumed): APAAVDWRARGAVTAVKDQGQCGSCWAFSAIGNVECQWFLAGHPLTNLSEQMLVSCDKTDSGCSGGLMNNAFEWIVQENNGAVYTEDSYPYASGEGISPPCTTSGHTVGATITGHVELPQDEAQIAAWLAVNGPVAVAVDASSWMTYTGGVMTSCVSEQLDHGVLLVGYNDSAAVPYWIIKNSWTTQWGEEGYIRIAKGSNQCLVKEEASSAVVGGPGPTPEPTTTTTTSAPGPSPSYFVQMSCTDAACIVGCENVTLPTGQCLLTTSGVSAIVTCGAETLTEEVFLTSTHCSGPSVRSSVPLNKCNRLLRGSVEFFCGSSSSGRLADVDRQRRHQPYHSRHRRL
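Detergent-containing run (0.01% Triton X-100) in acetate buffer pH 5.5 with 5 mM DTT: enzyme at 1.5 nM final, 15 min compound preincubation at room temperature, then 2 uM Z-FR-AMC substrate. Activity taken as 60 s fluorescence increase at 360/450 nm.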
RE007 growth inh: less growth of the S. pombe RE007 Vpr strain | S. pombe RE007 Vpr strain, BacTiter-Glo ATP luminescence, 24 h; control for the full effect not named in the record | Potency, µM (series often up to 92.2 µM), for inactives: top-dose activity change, negative = less growth | 360,000 tested, 0.21% active | AID 651644; active = well fitted falling curve with a large enough effect; inconclusive = small, poorly fitted or top-dose-only effect; inactive = no such curve, though single readings can be large or run the other way;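 note: % is set by controls: 0 for no effect and ±100 for the full control effect; nearly all actives have a fitted effect of over 50% in size; the assay follows cell death caused by Vpr and the record does not say whether a fall means rescue or toxicity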
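Fission yeast RE007 carrying one integrated HIV-1 vpr copy, seeded at OD 0.01 in PMG+AL medium with 23 nL pinned compound. Grown 24 h at 30 degrees; viability read by BacTiter-Glo luminescence after 5 min.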
Marburg entry inh: inhibitors of Marburg virus binding or cell entry. Marburg virus pseudotyped entry inhibition, cell reporter; control for the full effect not named in the record; about a third of the inactives were read at about 46 µM. Potency, µM (series often up to 37.8 µM), for the others: at the top dose activity change, negative = inhibition, most hits filed as inhibitors. 300,000 tested, 1.8% active. AID 540276; active = well fitted inhibition curve with a large enough effect; inconclusive = small, poorly fitted or top-dose-only effect, or effect the other way; inactive = flat fitted curve, though single readings scatter; tested in HEK293 cells; about a fifth of its hits are not listed in these tables; note: % is set by controls: 0 for no effect and ±100 for the full control effect; luciferase read-out
Cruzain inh noDet: cruzain (T. cruzi) inhibition without detergent; 200,000 tested, 2.3% active; AID 1476; Potency, µM, for the others: max response, negative = inhibition, most hits filed as inhibitors; P25779; purified cruzain, Z-FR-AMC fluorescence, no detergent; active = well fitted curve in the direction sought with a large enough effect; inconclusive = small, poorly fitted or top-dose-only effect, or another doubt; inactive = no such curve, though single readings can be large; an effect the other way counts as inactive or inconclusive;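 note: plate controls were enzyme without inhibitor for no effect and buffer without enzyme for full effect; nearly all actives have a fitted effect of over 40% in size; top concentration of the series not given in the record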
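Purified cruzain at 1.5 nM, pre-incubated 15 min with compound at room temperature in 100 mM sodium acetate pH 5.5, 5 mM DTT, 0.00005% Triton X-100. Reaction started with 2 uM Z-FR-AMC; AMC fluorescence increase over 60 s gives rate.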
SARS PLpro yeast: SARS-CoV PLP inhibition in yeast; S. cerevisiae expressing SARS-CoV PLpro, growth rescue; control for the full effect not named in the record; Potency, µM (doses to about 32.9 µM), without a hit: at the top dose activity, positive = growth rescue; 330,000 tested, 0.19% active; AID 485353; note: 0% is about no effect; nearly all actives have a fitted effect of over 55% in size; growth read by luminescence after 48 h
The depositor's hits bear a star; ? = inconclusive; · = no result given; & = joins results of further samples; [ ] = remark or other dose. Unless noted, calls come from the whole dose curve; as a rule, active means well fitted rising curve with a large enough effect; inconclusive means small, poorly fitted or top-dose-only effect; inactive means no such curve, though single readings can be large or run the other way. Potency is the fitted concentration of half-maximal effect.

SMILES | Lassa entry inh | StopGo reporter | NS1 inh | Cruzain Triton | RE007 growth inh | Marburg entry inh | Cruzain inh noDet | SARS PLpro yeast
COc1ccc(-n2c(CCc3ccccc3)n[nH]c2=S)cc1 | · | -8% | 8% | · | -4% | · | · | 0%
CCC(CO)Nc1ncc([N+](=O)[O-])cc1C#N (stereo not given) | -1% | -11% | 7% | -7.0% | 4% | 8% | -13% | 10%
O=C(CCNS(=O)(=O)c1ccc(Br)s1)NC1CCCC1 | 35%[14.3 µM] | 2% | 2% | 4.6% | 4% | 6% | 8% | 1%
Cc1ccc(S(=O)(=O)c2nnn3c2nc(NCc2ccc(F)cc2)c2sccc23)cc1C | -28%[46.1 µM] | -9% | · | -2.8% | · | · | 4% | ·
COc1ccc(C)cc1NC(=O)CN(c1ccccc1)S(C)(=O)=O | 1% | 0% | -3% | -1.4% | 9% | 2% | 1% | -3%
Oc1cccc(/C=N/N2CCN(C3c4ccccc4-c4ccccc43)CC2)c1 | 4% | -15% | 1% | · | 5% | -26% | · | -4%
Nc1ccc(S(=O)(=O)Nc2nc(-c3ccccc3)cc(-c3ccccc3)n2)cc1 | -28% | -3% | 4% | · | -3% | -3%[14.2 µM] | · | 2%
CCOc1ccc(S(=O)(=O)N(CC)CC(=O)N2CCCC2)cc1C | -4% | -6% | -4% | · | 0% | 10% | · | -3%
CC(=O)Nc1ccc(S(=O)(=O)NCCCN2CCN(Cc3ccccc3)CC2)cc1Cl | 8% | -4% | 1% | · | -12% | 15% | · | 2%
CCOC(=O)C(Sc1nnc(-c2ccncc2)o1)C(C)=O (stereo not given) | ? | 2% | 9% | -3.4% | -27% | 18% | -9% | 11%
COc1cccc(-n2nnc3c(=O)n(CC(=O)NCC4CCCO4)cnc32)c1 (stereo not given) | · | -21% | -10% | 0.8% | 9% | · | -8% | -3%
Cc1cccc(CNc2ncnc3ccc(-c4ccoc4)cc23)c1 | · | ? | · | -9.5% | · | · | -19% | -4%&-4%
COc1ccccc1C(=O)C1CCCN(Cc2ccc(Oc3ncccn3)cc2)C1 (stereo not given) | 3% | 1% | 6% | · | -16% | ? | · | 0%
Cc1cccc(NC(=O)CCS(=O)(=O)c2ccc3c(c2)NC(=O)CS3)n1 | · | 9% | 5% | · | 6% | · | · | -3%
Cc1nc(-c2ccccc2)sc1CCNC(=O)C(=O)Nc1ccc2c(c1)OCCO2 | 10%[46.1 µM] | ? | · | -1.2% | · | · | -3% | ·
COc1ccc(NC2CCCN(C(=O)CN3CCOC3=O)C2)cc1OC (stereo not given) | · | -4% | 2% | · | -1% | · | · | -3%
COC(=O)C1CCCN1C(=O)c1cccs1 (stereo not given) | 18% | -23% | 6% | 2.2% | 8% | 13% | -4% | 0%
O=C(c1ccccc1Br)N(Cc1ccco1)Cc1ccco1 | -5%[46.1 µM] | -6% | · | -1.3% | · | 11%[46.1 µM] | -8% | ·
COc1ccc(-c2cc(C(=O)NN3CCOCC3)c3ccccc3n2)cc1OC | · | -18% | 8% | · | 23% | · | · | -7%
CC(/C=N/Nc1nncc(=O)[nH]1)=C\c1ccccc1 | ? | 6% | 8% | -2.1% | 1% | 3% | ? | -11%
Cc1cccc(-n2ncc3c(NNC(=O)c4ccco4)ncnc32)c1 | · | 26% | 0% | · | 1% | · | · | -5%
CCOc1ccc(NC(=O)CN(C)C(=O)c2ccccc2SCc2c(C)noc2C)cc1OCC | -27% | -24% | · | · | -13% | ? | · | 1%
O=c1oc2ccccc2c(Nc2cccc(O)c2)c1[N+](=O)[O-] | -11% | -9% | 8% | -2.5% | -7% | ? | 6% | 4%
Cc1ccc(C)c(SCC(=O)N(C)C2CCS(=O)(=O)C2)c1 (stereo not given) | 11% | -7% | · | · | 6% | -3% | · | -3%
O=C(CCCc1ccccc1)Nc1nncs1 | ? | -2% | 1% | -0.2% | 25% | -1% | -4% | ?
O=S(=O)(c1ccc(-c2ccon2)s1)N1CCCC1 | 19%[46.1 µM] | 9% | 2% | · | -7% | 9%[46.1 µM] | · | -1%
CC(Oc1ccccc1)C(=O)Nc1nnc(C2CCCCC2)s1 (stereo not given) | 20% | 45%[activator] | -10% | · | -16% | 1%[46.1 µM] | · | 0%
O=C(c1ccc(S(=O)(=O)N2CCCCCC2)cc1)N1CCN(c2ccccc2F)CC1 | -10% | -15% | · | · | 4% | -12% | · | ·
O=C(Nc1ccc(F)cc1)c1nc[nH]c1C(=O)Nc1ccc([N+](=O)[O-])cc1 | 3%[46.1 µM] | -21% | 8% | -0.1% | 4% | ? | -16% | 0%
COc1cccc(NC(=O)N2CCCC2C(=O)NC23CC4CC(CC(C4)C2)C3)c1 (stereo not given) | 9% | 2% | -3% | · | 11% | 26%[46.1 µM] | · | 0%
CCCN1CCN(CCCNC(=O)c2cc3c(=O)[nH]c4ccc(C)cc4c3s2)CC1 | -19% | -19% | 3% | · | -14% | ? | · | 2%
Cn1c(C(=O)NCc2cccs2)cc2oc3ccccc3c21 | 0.5µM* | 12% | -7% | 0.5% | -7% | 0.45µM* | 21% | -2%
Cc1nnc(NC(=O)C(C)Sc2nnc(-c3ccco3)n2C(C)C)s1 (stereo not given) | 11% | 11% | 10% | · | 4% | -2%[46.1 µM] | · | 3%
O=c1cc(-c2ccccc2)oc2cc(O)c(O)c(O)c12 | · | 17%&28%&21% | · | -8.3%&-23%&-13% | -7% | · | ? | ?
Cc1cc2n(n1)CCCN2C(=O)Nc1cccc(C)c1C | -12%[46.1 µM] | -5% | · | -0.9% | · | · | 12% | ·
CC1(C)CC(=O)C(N=Nc2ccc(S(=O)(=O)N3CCCCCC3)cc2)=C(O)C1 | 5% | -18% | 13% | -6.8% | 27% | 8% | -25% | 3%
CCC(C)N(C(=O)Cn1nnc(-c2ccc(F)cc2)n1)C1CCS(=O)(=O)C1 (stereo not given) | 17%[46.1 µM] | 11% | -13% | · | 2% | 15%[46.1 µM] | · | -3%
O=C(NCc1ccc(F)cc1)c1cccnc1C(=O)O | ? | 2% | 4% | · | 3% | 2% | · | 0%
O=C(Nc1cccnc1)c1cc2nc(C3CC3)cc(C(F)(F)F)n2n1 | 25% | -8% | -11% | 4.0% | -6% | 1% | -6% | -3%
NS(=O)(=O)c1ccc(NCc2cnc3ccccc3n2)cc1 | · | 69%[activator] | 0% | -0.4% | -7% | · | -3% | ·
COc1ccc(-c2c(C#N)c(SCC(=O)Nc3ccc(C)c(C)c3)nc(C)c2C(=O)Nc2ccccc2)cc1OC | -2%[46.1 µM] | 2% | · | -1.8% | · | · | ? | ·
CC1CN(C(=O)/C(C#N)=C2\N=C(NC(=O)c3ccccc3Cl)c3ccccc32)CC(C)O1 (stereo not given) | 0% | · | 4% | -4.6% | · | -17% | 26% | -16%
CCOC(=O)c1ccc(N=C2S/C(=C\c3cc(C)n(-c4cccnc4)c3C)C(=O)N2C)cc1 | -3% | 0% | 6% | 6.1% | -5% | 12% | 11% | 12%
Cc1ccc(Cn2ccnc2C(=O)Nc2ccccc2)cc1 | ? | 34%[activator] | · | · | -26% | 18%[46.1 µM] | · | -3%
Cc1ccc(NC(=O)c2cc(-c3ccccc3)nn2-c2ccccc2)c(Br)c1 | ? | -5% | -14% | 0.0% | -2% | ? | -72% | -15%
Cc1[nH]c(=S)[nH]c(=O)c1CCOc1ccccc1 | -19% | -3% | 12% | 2.4% | -1% | -16% | 7% | -5%
CCCOc1ccc2[nH]c(C(=O)N/N=C/c3cc(OC)c(OC)c(OC)c3)cc2c1 | · | -12% | 29% | · | 2% | · | · | 1%
O=[N+]([O-])c1ccc(OCc2cnc(Cl)s2)cc1 | · | 19% | -2% | · | 1% | · | · | 1%
CCC(NS(=O)(=O)c1ccc(C)cc1)C(=O)Nc1ccc(NC(C)=O)cc1 (stereo not given) | 0% | -26% | 5% | -2.1% | -10% | -1% | 7% | -2%
CC(=O)Nc1ccc(S(=O)(=O)N2CC3(C)CC2CC(C)(C)C3)cc1 (stereo not given) | ? | 10% | · | · | 15% | ? | · | -1%
COc1ccccc1CN(Cc1nc2ccccc2c(=O)[nH]1)S(=O)(=O)c1ccc(C)cc1 | 2% | · | 1% | -5.8% | 10% | 8% | -16% | -8%
CCOC(=O)c1c(N)sc2c1CCC(CC)C2 (stereo not given) | -1% | -18% | 0% | -19% | -18% | -15% | -1% | 1%
CC(C)N1CCC(N2CCN(Cc3nc4ccccc4s3)CC2CCO)CC1 (stereo not given) | · | 3% | -8% | · | 6% | · | · | -1%
CCC(C)[C@H](NC(=O)N1CC(=O)Nc2ccccc21)C(=O)N1CCC[C@@H]1C(=O)O (stereo not given in full) | · | -12% | 28% | · | 5% | · | · | 8%
CCS(=O)(=O)CCSC(=N)N | -8% | · | 2% | 0.5% | 14% | 1% | 11% | 1%
CCOC(=O)c1c(C)oc2ccc(N(C(=O)c3ccncc3)S(=O)(=O)c3ccc(F)cc3C)cc12 | ? | -3% | · | -6.2% | · | ? | 4% | ·
COc1ccc(NC(=O)C2CCN(C(=O)c3cccs3)CC2)cc1 | 2% | -4% | -4% | -1.0% | 18% | 3% | 4% | 1%
CCOc1cc(N2CCOCC2)c(OCC)cc1NC(=O)COC(=O)CCc1c[nH]c2ccccc12 | 6% | -23% | -52% | -4.8% | -1% | 8%&8% | ? | -1%
COc1ccc(NC(=O)CSc2nc3ccsc3c(=O)n2CCC(=O)O)c(OC)c1 | 3%[46.1 µM] | -3% | 11% | · | -5% | -7%[46.1 µM] | · | 1%
CCn1nc(C(=O)OCC(=O)N(CC(C)C)c2c(N)n(Cc3ccccc3)c(=O)[nH]c2=O)c2ccccc2c1=O | -4% | -13% | · | · | -2% | 0% | · | 1%
